Vaccinia inh = Vaccinia orthopox stage-specific inhibition | Vaccinia-infected cells, mCherry/Venus stage reporter fluorescence; active compounds read low; some inactives read as strong as hits | activity change (mCherry), % (no concentration beside the values) | hit rate 0.01% among 89,000;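 active = mCherry past -33% and 40 or more points under the early reporter, replicates agreeing; inconclusive = past -33% without that gap or agreement; tested in A549 cells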;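 also: scaled between vehicle wells and reference inhibitor wells; 23 nL library stock went into each well; one replicate is shown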
Vaccinia inh Venus = further read-out of Vaccinia inh, marked with its call; activity change (Venus), %; measured here: Venus reporter, other viral stage;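 negative = less Venus signal; first of two replicates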
Numbers without * were called inactive; ? = inconclusive; / = not tested or not shown; & = joins results of further samples. A portion of the library. The share of hits here may be higher or lower than overall.

Value order – Vaccinia inh, Vaccinia inh Venus
- C[C@@H]1CN([C@@H](C)CO)C(=O)c2cc(NS(=O)(=O)c3cccs3)ccc2O[C@H]1CN(C)Cc1ccc(C(=O)Nc2ccccc2N)cc1
→ 5, 4
- O=C(C[C@H]1C=C[C@H](NC(=O)c2ccc(F)cc2)[C@@H](CO)O1)NCc1ccncn1
→ -7, 3
- Cc1noc(C)c1S(=O)(=O)Nc1ccc2c(c1)C(=O)N([C@H](C)CO)C[C@H](C)[C@H](CN(C)S(=O)(=O)c1c(C)noc1C)OCCCC[C@@H](C)O2
→ 11, 4
- Cc1cccc(-c2ccc([C@@H]3[C@@H](CO)N4CCCCN(Cc5cncnc5)C[C@@H]34)cc2)c1
→ -18, -20
- CCCC#Cc1cnc2c(c1)C(=O)N([C@H](C)CO)C[C@@H](C)[C@H](CN(C)S(=O)(=O)c1cccc(OC)c1)O2
→ -1&-18, -4&-7
- O=S(=O)(N[C@H]1CC[C@@H](CCn2cc(C3(O)CCCC3)nn2)O[C@@H]1CO)c1ccc(Cl)cc1
→ -15, 2
- C[C@@H]1CN([C@H](C)CO)C(=O)c2cc(C#C[C@@H](C)O)cnc2O[C@H]1CN(C)C(=O)c1ccccc1
→ 20, 9
- CO[C@@H]1CN(C)C(=O)c2ccc(NC(=O)Nc3ccccc3F)cc2OC[C@H](C)N(CC2CC2)C[C@@H]1C
→ -5, 2
- Cc1ccc(S(=O)(=O)N(C)C[C@@H]2Oc3ccc(NC(=O)C4CCCCC4)cc3C(=O)N([C@@H](C)CO)C[C@H]2C)cc1
→ ?, /
- CCCNC(=O)N1[C@H](C(=O)N2CCCCC2)[C@@H](CO)[C@@H]2Cn3c(ccc(-c4ccc(F)cc4)c3=O)[C@@H]21
→ 0, -1
- C[C@@H]1CN([C@@H](C)CO)S(=O)(=O)c2ccc(-c3cncnc3)cc2O[C@@H]1CN(C)Cc1ccccn1
→ 18, 7
- C[C@H]1CCCCO[C@@H](CN(C)C(=O)c2ccccc2)[C@@H](C)CN([C@@H](C)CO)C(=O)c2cc(NC(=O)c3ccccc3)ccc2O1
→ -11, -7
- CCC(=O)N(C)C[C@@H]1Oc2cc(C#Cc3ccccn3)ccc2S(=O)(=O)N([C@@H](C)CO)C[C@@H]1C
→ 7, 10
- C/C=C/c1ccc2c(c1)O[C@@H](CN(C)Cc1ccccc1)[C@@H](C)CN([C@@H](C)CO)S2(=O)=O
→ -29, -17
- O=C(c1ccc(F)cc1)N1CCCCN2[C@@H](CO)[C@H](c3ccc(/C=C/c4ccccc4)cc3)[C@@H]2C1
→ -5, -8
- COc1ccc(CN(C)C[C@H]2OCCCC[C@H](C)Oc3ccc(NC(=O)Nc4cccc5ccccc45)cc3C(=O)N([C@@H](C)CO)C[C@H]2C)cc1
→ -14, -7
- CCC(=O)Nc1ccc2c(c1)OC[C@H](C)N(C(=O)c1ccccc1F)C[C@H](C)[C@H](OC)CN(C)C2=O
→ -12, -5
- CC(C)NC(=O)Nc1ccc2c(c1)C(=O)N([C@H](C)CO)C[C@@H](C)[C@H](CN(C)C(=O)c1ccncc1)OCCCC[C@H](C)O2
→ 10, 7
- Cc1ccc(S(=O)(=O)Nc2cccc3c2O[C@@H](CN(C)S(=O)(=O)c2ccc(Cl)cc2)[C@@H](C)CN([C@@H](C)CO)C3=O)cc1
→ -6, 2
- COc1ccc2c3c([nH]c2c1)[C@@H](CO)N(C(=O)Cc1ccccc1)CC31CN(C(=O)Nc2ccccc2F)C1
→ -15, -23

Exported with bars between the fields: part of the list above.
compound | Vaccinia inh | Vaccinia inh Venus
CCC(=O)N(C)C[C@@H]1Oc2cc(C#Cc3ccccn3)ccc2S(=O)(=O)N([C@@H](C)CO)C[C@@H]1C | 7 | 10
C/C=C/c1ccc2c(c1)O[C@@H](CN(C)Cc1ccccc1)[C@@H](C)CN([C@@H](C)CO)S2(=O)=O | -29 | -17
O=C(c1ccc(F)cc1)N1CCCCN2[C@@H](CO)[C@H](c3ccc(/C=C/c4ccccc4)cc3)[C@@H]2C1 | -5 | -8
COc1ccc(CN(C)C[C@H]2OCCCC[C@H](C)Oc3ccc(NC(=O)Nc4cccc5ccccc45)cc3C(=O)N([C@@H](C)CO)C[C@H]2C)cc1 | -14 | -7
CCC(=O)Nc1ccc2c(c1)OC[C@H](C)N(C(=O)c1ccccc1F)C[C@H](C)[C@H](OC)CN(C)C2=O | -12 | -5

Carrying on.
Value order – Vaccinia inh, Vaccinia inh Venus
- CCCC#Cc1cnc2c(c1)C(=O)N([C@@H](C)CO)C[C@@H](C)[C@@H](CN(C)C(=O)c1cnccn1)O2
→ 3, 2
- CCC(=O)N1C[C@H](C)[C@@H](OC)CN(C)C(=O)c2ccc(NC(=O)CC(F)(F)F)cc2OC[C@H]1C
→ 19, 12
- Cc1ccc(S(=O)(=O)N(C)C[C@H]2OCCCC[C@@H](C)Oc3ccc(NS(=O)(=O)c4ccc(F)cc4)cc3C(=O)N([C@H](C)CO)C[C@@H]2C)cc1
→ -14, -14
- CN(C)CCCNC(=O)C[C@H]1CC[C@@H](NS(=O)(=O)c2ccccc2)[C@H](CO)O1
→ 8, -8
- C[C@H]1CN([C@@H](C)CO)C(=O)c2cccc(NS(=O)(=O)c3cn(C)cn3)c2O[C@H]1CN(C)C(=O)Nc1ccc(C(F)(F)F)cc1
→ 8, 8
- C/C=C/c1ccc2c(c1)O[C@H](CN(C)C(=O)CN(C)C)[C@H](C)CN([C@H](C)CO)S2(=O)=O
→ 3, -9
- C[C@H]1CCCCO[C@H](CN(C)C(=O)Nc2ccccc2)[C@@H](C)CN([C@@H](C)CO)C(=O)c2cc(NC(=O)Nc3ccccc3)ccc2O1
→ -4, -8
- C[C@H](CO)N1C[C@H](C)[C@@H](CN(C)C(=O)CCC(F)(F)F)OCCCC[C@H](C)Oc2ccc(NC(=O)c3ccccc3)cc2C1=O
→ 1, -9
- COc1ccccc1C#Cc1ccc([C@@H]2[C@@H](C#N)N(C(=O)C3CCCCC3)[C@@H]2CO)cc1
→ ?, /
- O=C(NCc1ccc(F)cc1)[C@@H]1[C@@H](CO)[C@@H]2Cn3c(cccc3=O)[C@@H]2N1C(=O)c1cccnc1
→ -1, 3
- O=C(C[C@@H]1C=C[C@H](NC(=O)C2CC2)[C@@H](CO)O1)Nc1nccs1
→ 6, 7
- CCC(=O)N1Cc2cc(C(=O)NCCOC)nc(-c3cccc(-c4ccc(C#N)cc4)c3)c2[C@@H]1CCO
→ -3, 1
- COc1ccc(S(=O)(=O)N(C)C[C@H]2Oc3ccc(NS(C)(=O)=O)cc3C(=O)N([C@H](C)CO)C[C@H]2C)cc1
→ 10, 11
- CCC(=O)Nc1ccc2c(c1)OC[C@H](C)NC[C@H](C)[C@H](OC)CN(C)C2=O
→ 16, 15
- O=C(Nc1cccc(Cl)c1)N1C[C@H]2[C@@H](c3ccccc31)[C@@H](CO)N2C(=O)c1ccncc1
→ 3, -8
- C[C@@H]1CCCCO[C@@H](CN(C)Cc2ccc3c(c2)OCO3)[C@H](C)CN([C@H](C)CO)C(=O)c2cc(NC(=O)Nc3ccc(F)cc3)ccc2O1
→ ?, /
- O=C(c1ccccc1)N1CC(=O)N2[C@H](CO)[C@H](c3ccc(C#CC4CC4)cc3)[C@@H]2C1
→ 24, 3
- C[C@H]1CN([C@@H](C)CO)S(=O)(=O)c2ccc(C3=CCCC3)cc2O[C@H]1CN(C)C(=O)C1CCOCC1
→ 28, 21
- CO[C@@H]1CN(C)C(=O)c2ccc(NC(=O)Nc3ccccc3)cc2OC[C@H](C)N(C(=O)CN(C)C)C[C@@H]1C
→ -4, -8
- COCC(=O)Nc1ccc2c(c1)C(=O)N(C)C[C@@H](OC)[C@H](C)CN(C)[C@H](C)CO2
→ 7, -1
- COCC(=O)N1CC2(CCN(S(C)(=O)=O)CC2)c2c(n(C)c3cc(OC)ccc23)[C@H]1CO
→ 9, -2
- O=S(=O)(c1ccc(F)cc1)N1CCCCN2[C@H](CO)[C@H](c3ccc(C#CC4CC4)cc3)[C@H]2C1
→ -30, -34
- COc1ccccc1CNC(=O)C[C@@H]1CC[C@H](NC(C)=O)[C@@H](CO)O1
→ 14, 13
- Cc1ccc(S(=O)(=O)Nc2ccc3c(c2)C(=O)N([C@@H](C)CO)C[C@H](C)[C@H](CN(C)C(=O)Nc2cccc4ccccc24)O3)cc1
→ 25, 20
- CO[C@@H]1CN(C)C(=O)c2cc(NC(=O)C3CCOCC3)ccc2OC[C@@H](C)N(C(=O)Nc2ccc(C(F)(F)F)cc2)C[C@H]1C
→ -29, -19
- COc1ccc(NC(=O)N(C)C[C@@H]2Oc3c(NC(=O)NC4CCCCC4)cccc3C(=O)N([C@H](C)CO)C[C@H]2C)cc1
→ 12, 18
- Cc1noc(C)c1NC(=O)Nc1ccc2c(c1)CC(=O)N([C@@H](C)CO)C[C@@H](C)[C@H](CN(C)S(C)(=O)=O)O2
→ 22, 15
- N#C[C@@H]1[C@H](c2ccc(-c3cncnc3)cc2)[C@H](CO)N1C(=O)C1CCC1
→ 6, 10
- COc1ccc(CN(C)C[C@H]2Oc3ccc(NC(=O)C4CC4)cc3C(=O)N([C@@H](C)CO)C[C@@H]2C)cc1
→ 1, -1
- CN(C)C(=O)c1cccc(-c2ccc([C@H]3[C@@H](CO)N(C(=O)C4CCCC4)[C@H]3C#N)cc2)c1
→ -31, -23
- CC(C)NC(=O)Nc1ccc2c(c1)C(=O)N([C@H](C)CO)C[C@H](C)[C@H](CN(C)C(=O)Nc1ccccc1)OCCCC[C@H](C)O2
→ 5, -14
- Cc1ccccc1-c1ccc(C2[C@@H]3CN(C(=O)C4CCCC4)C[C@H]2N3)cc1 (some centres undefined)
→ ?, 4
- COCC(=O)N1CC2(CN(C(=O)c3ccccn3)C2)c2c(n(C)c3cc(OC)ccc23)[C@@H]1CO
→ 0, -3
- Cc1ccc(S(=O)(=O)Nc2ccc3c(c2)C(=O)N([C@@H](C)CO)C[C@@H](C)[C@H](CN(C)S(=O)(=O)c2ccc(C)cc2)OCCCC[C@H](C)O3)cc1
→ -3, -9
- CO[C@H]1CN(C)C(=O)c2cc(NC(C)=O)ccc2OC[C@H](C)N(C(=O)CC2CC2)C[C@H]1C
→ 2, 4
- Cc1noc(C)c1NC(=O)Nc1ccc2c(c1)CC(=O)N([C@@H](C)CO)C[C@H](C)[C@H](CN(C)C(=O)Nc1ccc3c(c1)OCO3)O2
→ 2, 6
- C[C@@H]1CN([C@H](C)CO)C(=O)c2cccc(NC(=O)Nc3cccc4ccccc34)c2O[C@@H]1CN(C)S(=O)(=O)c1ccc(Cl)cc1
→ ?, /
- C[C@H](NC(=O)C[C@H]1CC[C@@H]2[C@H](COC[C@H](O)CN2C(=O)Nc2cccc(Cl)c2)O1)c1ccccc1
→ -10, -10
- COc1ccc(NC(=O)N(C)C[C@H]2Oc3ccc(NS(C)(=O)=O)cc3C(=O)N([C@@H](C)CO)C[C@@H]2C)cc1
→ -1, -4
- COc1ccccc1S(=O)(=O)N[C@@H]1CC[C@@H](CC(=O)N2CCOCC2)O[C@@H]1CO
→ 8, 9
- COc1ccc(S(=O)(=O)Nc2ccc3c(c2)CC(=O)N([C@@H](C)CO)C[C@@H](C)[C@H](CN(C)C(=O)Nc2ccccc2)O3)cc1
→ 9, 14
- CCC(=O)N1C[C@@H](O)COC[C@H]2O[C@@H](CC(=O)NCc3ccc(Oc4ccccc4)cc3)CC[C@@H]21
→ 6, 7
- CO[C@@H]1CN(C)C(=O)c2cc(NC(=O)C3CCCC3)ccc2OC[C@H](C)N(C)C[C@H]1C
→ -3, -5
- O=C(c1ccc(F)cc1)N1CC(=O)N2[C@H](CO)[C@H](c3ccc(/C=C/c4ccccc4)cc3)[C@@H]2C1
→ 10, 2
- C[C@H](CO)N1C[C@H](C)[C@H](CN(C)C(=O)c2ccccc2)Oc2cc(Br)ccc2S1(=O)=O
→ 6, -3
- COc1ccc2c3c([nH]c2c1)[C@H](CO)N(Cc1cccnc1)CC31CN(C(=O)CN(C)C)C1
→ 34, 6
- C[C@@H]1CN([C@H](C)CO)C(=O)Cc2cc(NC(=O)Nc3ccc(F)cc3)ccc2O[C@@H]1CN(C)S(C)(=O)=O
→ 12, 16
- COCCNC(=O)C[C@@H]1C=C[C@H](NS(=O)(=O)c2ccc(C)cc2)[C@H](CO)O1
→ -9, -1
- Cc1noc(C)c1S(=O)(=O)Nc1ccc2c(c1)CC(=O)N([C@@H](C)CO)C[C@H](C)[C@H](CN(C)S(=O)(=O)c1c(C)noc1C)O2
→ 30, 20
- C[C@@H]1CCCCO[C@H](CN(C)C(=O)c2ccncc2)[C@H](C)CN([C@@H](C)CO)C(=O)c2cc(NC(=O)C3CCCCC3)ccc2O1
→ 17, 15
- CNC[C@H]1Oc2cc(-c3ccccc3F)ccc2S(=O)(=O)N([C@@H](C)CO)C[C@H]1C
→ -15, 0
- O=C(Nc1ccc(F)cc1)N1CC(=O)N2[C@@H](CO)[C@@H](c3ccc(C#Cc4ccc(F)cc4)cc3)[C@@H]2C1
→ ?, /
- N#Cc1ccc(-c2ccc([C@@H]3[C@@H](CO)N4C(=O)CN(C(=O)C5CC5)C[C@@H]34)cc2)cc1
→ -6, -8
- Cc1noc(C)c1NC(=O)Nc1ccc2c(c1)C(=O)N([C@@H](C)CO)C[C@H](C)[C@@H](CN(C)C(=O)c1ccccc1)OCCCC[C@@H](C)O2
→ 11, -2
- COCC(=O)N1CC2(C1)CN(Cc1ccccc1Cl)[C@H](CO)c1c2c2ccc(OC)cc2n1C
→ 2, -4
- CCCNC(=O)N(C)C[C@@H]1Oc2cc(-c3ccccc3)ccc2S(=O)(=O)N([C@H](C)CO)C[C@H]1C
→ -3, -6
- O=C(C[C@H]1CC[C@@H]2[C@H](COC[C@@H](O)CN2CCC(F)(F)F)O1)NCC1CCCCC1
→ 2, 1
- CCC(=O)N[C@@H]1C=C[C@@H](CC(=O)OC)O[C@@H]1CO
→ 1, -1
- COc1cccc(-c2ccc([C@H]3[C@H]4CN(C(=O)NC(C)C)CCCCN4[C@H]3CO)cc2)c1
→ 5, -11
